Compound activity deposited in PubChem BioAssay by several laboratories.
PrP 5UTR inh: inhibition of PrP 5' UTR reporter expression. cell-based PrP 5' UTR mRNA reporter, plate reader. inhibition, % (test concentration not listed). actives 0.35% (n = 340,000). AID 488862, 2010;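 active = every replicate at 50% or more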;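 note: 0 = median of the neutral control wells; tested in H4 reporter cells; numbers are from one replicate; inactives centre near -14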
Autofluor counter: compound fluorescence in toxin protease inhibitor counterscreen. compound autofluorescence counterscreen, microsphere flow cytometry; active compounds read high. actives 3.1% (n = 360,000). fluorescence intensity (test concentration not listed). AID 624483;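 active = at least 3 SD above the mean of all compounds, about 16000 in these data; inconclusive = too few beads counted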;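 note: 100 nL of 1 mM stock went into each well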
BJeLR lethal: MLPCN primary cell-based screen for lethality selective to Ras in HRASV12 cells | BJeLR (HRASV12) viability, CellTiter-Glo ATP luminescence, 48 h; reference of the scale not given here | inhibition, % (concentration not given with the values) | actives 0.17% (n = 300,000);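 active = replicate mean above 50%; inconclusive = above 50% but judged a plate artefact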;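 note: 50 nL library stock added to about 25 µL; numbers are from one replicate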
Mtb hypoxia rep: PubChem AID 1159583. fluorescence inhibition, % (test concentration not listed). actives 0.1% (n = 300,000). M. tuberculosis hypoxia-regulated fluorescent reporter, fluorescence;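 active = 35 to 45% if threefold the growth effect, above 45% if 1.5-fold the growth effect; inactive = the rest, general growth blockers included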;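 note: wells of about 50 µL received 100 nL stock; 0% = vehicle wells and 100% = reference inhibitor wells; whole bacteria with a GFP reporter of the hypoxia response; strong numbers were not always called active; many hits fall short of the cut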
RN4220 kill: growth inhibition of S. aureus RN4220, primary screen, OD600; 16 h; actives 0.33% (n = 330,000); inhibition, % (no concentration beside the values);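 active = z-score of -3 or lower and OD600 up to 0.18 on both plates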;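 note: plate controls were untreated cells for no effect and reference antibiotic for full effect; stock transfer was 100 nL into about 80 µL; one replicate is shown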
Sa ugtP lethal: growth inhibition of ugtP-null S. aureus, primary screen, RN4220 ugtP deletion, OD600 | growth inhibition, % (concentration not given with the values) | actives 0.54% (n = 330,000) | 16 h; some inactives read as strong as hits;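 active = z-score under -3 and OD600 up to 0.15 on both plates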;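 note: plate controls were untreated wells for no effect and antibiotic for full effect; wells of about 80 µL received 100 nL stock; the first replicate is given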
Mtb hypoxia rep growth: second read-out of Mtb hypoxia rep, no call of its own (marks repeat the call); growth inhibition, %; measured here: M. tuberculosis growth (absorbance);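 0% = vehicle and 100% = reference antibiotic; read after six days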
* hit, by the source's call; ? = inconclusive; . = no result given. Compounds were not picked by outcome. About 4% of those tested had a hit in this group.

nr	smiles	PrP 5UTR inh	Autofluor counter	BJeLR lethal	Mtb hypoxia rep	Mtb hypoxia rep growth	RN4220 kill	Sa ugtP lethal
1	CCN(CC)C(=O)c1nc[nH]c1C(=O)N1CCC(C)CC1	17	4242	.	-21	-3	7.1	-3
2	CCN1C(=S)NC(c2ccccc2)C(C(=O)OC)=C1C (stereo not drawn)	.	.	.	2	-5	0.4	-4
3	O=C(N/N=C\c1ccc(COc2ccc([N+](=O)[O-])cc2)o1)c1ccc(Cl)cc1	-26	3156	0	.	.	.	.
4	CCOC(=O)Cc1csc(NC(=O)c2c(-c3c(Cl)cccc3Cl)noc2C)n1	-6	4231	-2	-9	-7	1.3	0
5	O=C(Nc1cccc(S(=O)(=O)N2CCOCC2)c1)c1ccccc1[N+](=O)[O-]	-8	8527	.	-3	1	3.3	1
6	Cc1cc(N2CCC(C)CC2)nc(-n2nc(C)cc2C)n1	-10	5935	7	.	.	7.1	-1
7	CN(C)S(=O)(=O)c1ccc(C(=O)NCc2nnc(SCC(=O)N3CCCC3)o2)cc1	-23	6670	-4	8	-1	2.8	5
8	Nc1cc(-c2ccccc2)nn1Cc1ccccc1	-15	2511	3	12	5	3.7	11
9	CCN(CC)CCCNc1nc2cc(OC)c(OC)cc2c2nc(-c3cccnc3)nn12	-63	3837	-4	39*	13*	4.7	51
10	CC1(C)Cc2cccc(OCC(=O)NCc3ccccc3F)c2O1	-5	3798	.	5	4	11	4
11	CC(C)CNC(=O)C1CCCN(C(=O)NCc2ccccc2)C1 (stereo not drawn)	-14	4274	-2	3	15	3.2	-3
12	O=c1c2ccccc2sn1-c1ccccc1	-4	3386	-3	8	8	84	94*
13	Oc1c(Br)cc(C=Nn2c(-c3ccccc3)n[nH]c2=S)c(O)c1Br	.	.	.	0	1	28	5
14	COC(=O)c1ccc(CN2CCC(CO)(Cc3cccc(OC)c3)CC2)cc1	-2	2653	-1	8	5	2.5	7
15	O=C(COc1cccc(-n2cnnn2)c1)Nc1ccccc1	-18	6515	0	10	-1	1.9	5
16	CCOC(=O)c1cn(CC(=O)Nc2ccc(C)cc2)nn1	-15	?	-1	-6	4	3.0	6
17	S=C1CSc2ccccc2N1	-17	3215	22	19	6	18	7
18	CC(=O)c1c(C)[nH]c(C(=O)O)c1C	-45	5226	0	2	9	9.8	11
19	COc1ccccc1CCC(=O)OCC(=O)Nc1cccc(S(=O)(=O)N2CCOCC2)c1	-19	4673	0	4	-1	8.0	11
20	COc1ccc(S(=O)(=O)N2CCN(c3nc(C)cc(C)n3)CC2)cc1	.	3664	12	-5	-1	1.4	-2
21	Cc1ccc(C)c(S(=O)(=O)N2CCCOC2CNC(=O)C(=O)NCc2ccccn2)c1 (stereo not drawn)	-27	5500	-5	-2	-1	0.2	-2
22	CC(c1nnc(SCC(=O)N(C)C2CCS(=O)(=O)C2)n1-c1ccccc1)N(C)C (stereo not drawn)	-26	3687	.	2	-4	3.4	1
23	C=CCc1c(C)nc2c(C(=O)O)cnn2c1C	-25	9625	-6	5	9	1.9	0
24	CSc1cccc(NS(=O)(=O)c2cccs2)c1	-4	8323	-6	1	2	5.6	1
25	Cc1cc(N)n2nc(-c3ccccc3)c(-c3ccccc3)c2n1	-38	3533	-4	2	14	2.0	-4
26	Cc1cc(NCCNC2=CC(=O)CCC2)nc2ccccc12	-19	2859	3	7	9	5.7	0
27	CC(C)NS(=O)(=O)c1ccc(OCC(N)=O)c(Cl)c1	-9	2456	-2	.	.	-0.6	8
28	Cc1ccc(C)c(OCc2cc(C(=O)NC(C)c3cnn(C)c3)no2)c1 (stereo not drawn)	-19	4490	8	10	-1	6.0	8
29	CCC(=O)NC(C)c1nc2ccccc2n1C (stereo not drawn)	12	4282	-12	5	6	2.9	-1
30	CCCn1c(N)c(N(CCOC)C(=O)CSc2cc(C)c3cccc(C)c3n2)c(=O)[nH]c1=O	-8	3755	.	4	-8	-0.7	4
31	Cc1ccc(OCc2nc(C#N)c(NCc3ccc4c(c3)OCO4)o2)cc1	-7	4692	-1	.	.	-6.1	-8
32	O=C(CCCn1c(=O)c2ccccc2n(CC(=O)N2CCN(c3ccccc3)CC2)c1=O)NCc1ccco1	0	3508	-12	-7	-6	0.8	6
33	COc1ccc(C(CC(=O)Nc2ncccc2C)N2Cc3ccccc3C2=O)cc1OC (stereo not drawn)	-18	4218	-4	4	-2	1.8	-1
34	CC(C)CC(=O)NC(=S)Nc1ccccc1C(=O)Nc1ccccc1	6	8794	4	6	11	0.5	13
35	O=C(CC1CC2CCC1C2)OCC(=O)c1c[nH]c2ccccc12 (stereo not drawn)	-38	2720	1	.	.	-0.9	-3
36	CCCCOc1ccc(C(=O)NCCCC(=O)N2CCCCC2)cc1	-35	6659	-4	14	-1	1.5	6
37	COc1ccc(C)cc1NCc1ccc([N+](=O)[O-])cc1	-13	3541	3	6	3	-0.8	17
38	CS(=O)(=O)N(CC(=O)NCCSCc1ccccc1)c1ccc2c(c1)OCO2	-19	3427	-5	-5	1	2.7	3
39	COc1ccccc1NC(=S)NCC1CCCO1 (stereo not drawn)	-14	2009	12	8	-6	2.3	7
40	COc1cc(/C=C/c2ccc3c([N+](=O)[O-])cccc3n2)ccc1OCC(=O)O	-39	4271	3	77*	47*	4.4	7
41	Cc1sc2ncn(CC(=O)NCc3ccccn3)c(=O)c2c1S(=O)(=O)N1CCOCC1	-4	9499	3	11	12	4.2	-2
42	O=C(NCCCN1CCOCC1)c1ccc2c(c1)N(Cc1cccc(F)c1)C(=O)c1ccccc1S2	-12	6073	-10	-14	7	-5.3	-15
43	CCOc1ccccc1NC1=C(Cl)C(=O)N(c2ccccc2)C1=O	-13	2009	14	5	1	-5.5	2
44	O=C(Oc1ccccc1C(=S)N1CCOCC1)c1cccc([N+](=O)[O-])c1	-14	5946	1	3	-2	2.7	3
45	Cc1cc(Cl)ccc1OCC(=O)NCCOc1nc(N2CCOCC2)nc(N2CCOCC2)n1	-5	3064	17	.	.	3.2	2
46	CC(C)OC(=O)/C(C#N)=C/c1cn(Cc2ccccc2)c2ccccc12	-21	2330	7	-2	-8	-6.3	3
47	COC(=O)C1=NN(C(=O)c2cccc(Br)c2)C(O)(c2ccc(Cl)cc2)C1 (stereo not drawn)	3	2562	3	0	10	22	-11
48	NS(=O)(=O)c1ccc2nc(NC(=O)C3CCCO3)sc2c1 (stereo not drawn)	-12	2598	6	8	-3	1.4	6
49	COc1ccccc1-c1nnc(SCC(=O)NCc2ccco2)n1N	-26	3324	-3	7	3	5.7	-1
50	COc1ccc(CNC(=O)CCC(=O)Nc2nnc(CC(C)C)s2)cc1	-13	4033	8	6	0	3.0	12
51	COc1ccc(C(=O)NCC(c2ccc3c(c2)OCO3)N2CCN(c3ccc(OC)cc3)CC2)cc1 (stereo not drawn)	-12	.	-3	1	0	2.8	3
52	O=C(c1ccc(CS(=O)(=O)Cc2ccccc2)cc1)N1CCCCC1	-14	5697	7	5	0	-1.6	6
53	COc1cc(Br)c(CC(=O)NNC(=O)c2ccc(F)cc2)cc1OC	-5	3939	.	-1	0	2.3	0
54	CCOc1ccc(NC(=O)CN(C)C(=O)c2ccc(C)o2)cc1OCC	-18	2431	-13	6	1	4.2	10
55	O=C(COC(=O)c1cc(Cl)ccc1O)NNC(=O)c1ccccc1F	-13	3510	.	7	2	0.6	-1
56	O=C(Cc1cc(=O)[nH]c(=O)[nH]1)NCc1ccccc1	12	4876	1	7	1	-1.1	12
57	Cc1ccc(CSc2nnc3nc(C)cc(C)n23)cc1	-21	3023	10	.	.	2.6	-1
58	O=C1Nc2ccc(F)cc2C12OCCO2	-2	2921	9	-11	6	0.9	8
59	Cc1[nH]c(=O)[nH]c(=O)c1S(=O)(=O)Nc1ccc(F)c([N+](=O)[O-])c1	-23	3655	4	-5	5	3.5	11
60	Cc1ccc(OCC(=O)NCC(=O)Nc2ccc(F)c(F)c2F)c([N+](=O)[O-])n1	-5	2192	-6	7	3	1.0	11

3 entries picked at random from the list so far:
nr	smiles	PrP 5UTR inh	Autofluor counter	BJeLR lethal	Mtb hypoxia rep	Mtb hypoxia rep growth	RN4220 kill	Sa ugtP lethal
17	S=C1CSc2ccccc2N1	-17	3215	22	19	6	18	7
57	Cc1ccc(CSc2nnc3nc(C)cc(C)n23)cc1	-21	3023	10	.	.	2.6	-1
58	O=C1Nc2ccc(F)cc2C12OCCO2	-2	2921	9	-11	6	0.9	8

Remaining list, next part
nr	smiles	PrP 5UTR inh	Autofluor counter	BJeLR lethal	Mtb hypoxia rep	Mtb hypoxia rep growth	RN4220 kill	Sa ugtP lethal
61	COc1ccc(C(C)NC(=O)C23CC4CC(CC(C4)C2)C3)cc1 (stereo not drawn)	-16	4083	7	7	2	5.4	7
62	COc1cc2cnc(-c3ccccc3)c(-c3ccc([N+](=O)[O-])cc3)c2cc1OC	-16	3920	.	9	0	73	-3
63	O=C(/C=C/c1ccco1)c1ccc(O)cc1	.	.	2	15	12	2.7	12
64	COc1ccc(-c2oc3ccc(-c4ccc(OC)nc4)cc3c2C#CC2(O)CCCCC2)cc1	-9	3867	-12	-8	21	9.6	25
65	COC(C[C@@H]1O[C@H]1[C@H](O)COCc1ccccc1)OC	-15	4141	1	.	.	.	.
66	O=C(Nc1nc(-c2cccs2)c(C(=O)C(F)(F)F)s1)c1ccco1	-15	4177	13	8	7	49	57
67	CCn1c(SCc2ccc(OC)cc2)nnc1-c1ccncc1	-8	9575	-9	7	6	5.8	2
68	Cc1nn(CCCC(=O)NC2CCC(C)CC2)c(=O)c2nn(-c3ccccc3)c(C)c12 (stereo not drawn)	-8	5153	-7	6	6	1.8	6
69	O=[N+]([O-])c1cncc([N+](=O)[O-])c1Nc1cccc(O)c1	-23	3124	8	.	.	.	.
70	CC1CCCCC1NC(=O)COc1ccc(-n2cnnn2)cc1 (stereo not drawn)	17	3479	-5	.	.	-2.8	-10
71	O=C(c1cc(=O)[nH]c2ccccc12)N1CCN(c2ccccc2)CC1	-27	4110	5	4	4	2.8	2
72	O=C(Cc1ccccc1)NN=Cc1ccccc1	-17	3726	.	10	11	2.3	1
73	Cc1nc(N2CCN(C)CC2)[nH]c(=O)c1Cc1cccc2ccccc12	-10	6318	13	3	2	1.9	-2
74	COc1ccc(CCNC(=O)c2cc(S(=O)(=O)N(C)C)ccc2N2CCCC2)cc1	8	2929	2	-4	-7	-4.0	1
75	CCC(=O)c1ccc(N2CCN(C(=O)c3cccc(F)c3)CC2)c(F)c1	-10	3554	11	4	5	6.4	6
76	O=c1c2[nH]c3cccc(Cl)c3c2ncn1Cc1ccncc1	-23	2602	.	.	.	7.5	6
77	CCN(CC)C(=O)CSc1nsc(SCC(=O)N(CC)CC)c1C#N	-6	3127	.	.	.	1.1	4
78	Cc1cc(OCC(=O)N2C[C@H]3C[C@@H](C2)c2cccc(=O)n2C3)c2c(C)cc(=O)oc2c1	1	4071	0	.	.	9.6	-4
79	CCOCCCn1c(=S)[nH]c2cc(C(=O)N3CCOCC3)ccc2c1=O	-12	17022*	-8	3	-1	4.1	4
80	COCC(C)n1c(C)cc(C(=O)COC(=O)CN=C2NS(=O)(=O)c3ccccc32)c1C (stereo not drawn)	-14	11128	-14	2	-1	7.2	3
81	O=C(NCc1cccs1)C1CC(=O)N(C2CCCC2)C1 (stereo not drawn)	-4	11182	0	-5	7	1.6	5
82	CC(=O)Nc1ccc2nc(-c3ccccc3)cn2c1	-88	2500	-4	5	7	4.7	11
83	CC1CCN(CC(C)CNC(=O)c2cc(-c3ccccn3)nc3ccccc23)CC1 (stereo not drawn)	.	9867	2	-3	2	4.9	-2
84	CC(=O)N1CCOc2ccc(S(=O)(=O)N3CCC(C(=O)Nc4ccc(F)cc4)CC3)cc21	-14	5266	8	5	7	-0.1	4
85	O=C(COc1ccc(Cl)cc1Br)Nc1cccc(S(=O)(=O)N2CCCC2)c1	-6	4139	.	-4	9	-0.6	-24
86	O=S(=O)(NCc1ccccc1)c1cccc2nonc12	-39	7727	1	9	6	1.4	-5
87	COc1cc(OC)cc(C(=O)NCc2n[nH]c(=S)n2-c2ccccc2OC)c1	-13	5244	1	6	3	2.3	4
